KCNQ2 inh: KCNQ2 potassium channel inhibitors, primary screen, cell-based, CHO-K1, FluxOR thallium flux, B-score (AID 2156); O88943; 20 min; hits give low values; only compounds with negative scores are shown here; some inactives read as strong as hits; B-score at 10 µM; 310,000 tested, 1.1% active;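 active = fluorescence ratio B-score at most minus 3 library SDs, with starting brightness B-score within 2 library SDs, cut at about -5.5 in these data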
Target sequence (O88943 whole entry, looked up): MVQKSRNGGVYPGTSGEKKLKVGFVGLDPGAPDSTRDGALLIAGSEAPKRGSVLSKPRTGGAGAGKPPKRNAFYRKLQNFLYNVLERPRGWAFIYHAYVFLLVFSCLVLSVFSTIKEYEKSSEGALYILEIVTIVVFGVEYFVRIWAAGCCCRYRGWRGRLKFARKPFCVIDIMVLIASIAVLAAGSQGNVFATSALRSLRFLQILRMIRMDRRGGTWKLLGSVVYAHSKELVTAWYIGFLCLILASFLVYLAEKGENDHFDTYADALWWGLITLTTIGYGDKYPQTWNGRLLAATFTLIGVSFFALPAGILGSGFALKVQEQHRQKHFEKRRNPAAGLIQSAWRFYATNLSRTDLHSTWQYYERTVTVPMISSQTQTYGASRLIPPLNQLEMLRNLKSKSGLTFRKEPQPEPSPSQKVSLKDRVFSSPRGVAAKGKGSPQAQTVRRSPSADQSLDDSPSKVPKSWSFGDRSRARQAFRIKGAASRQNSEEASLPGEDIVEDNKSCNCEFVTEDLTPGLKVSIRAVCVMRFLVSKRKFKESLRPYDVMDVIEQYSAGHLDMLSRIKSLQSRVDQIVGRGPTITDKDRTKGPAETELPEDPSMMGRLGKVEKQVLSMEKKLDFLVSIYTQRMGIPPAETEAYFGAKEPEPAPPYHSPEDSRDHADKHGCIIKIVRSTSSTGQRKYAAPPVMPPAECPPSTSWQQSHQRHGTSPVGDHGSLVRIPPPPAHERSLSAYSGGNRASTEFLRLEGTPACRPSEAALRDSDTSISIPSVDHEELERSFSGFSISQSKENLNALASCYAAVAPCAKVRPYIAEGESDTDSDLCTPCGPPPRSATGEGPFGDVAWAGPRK
KCNQ2 inh baseline: further read-out of KCNQ2 inh, marked with its call; B-score; measured here: initial fluorescence intensity artifact check;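 brightness before thallium and not channel activity; 0 = typical well and far values either way flag optical interference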
Starred values were filed as active, the others as inactive; i = inactive. Only part of the results is shown; count on the stated rates, not on these rows.

no.	SMILES	KCNQ2 inh	KCNQ2 inh baseline
1	Cc1ccc(S(=O)(=O)N2CCN(S(=O)(=O)c3ccc(C)cc3)C2c2ccccc2)cc1	i	-0.29
2	CCn1cc(C(=O)NCC2CCCO2)c(=O)c2cc(S(=O)(=O)N(C)C3CCCCC3)ccc21 (stereo not drawn)	i	-0.67
3	CCOC(=O)C1CCCn2c1nc1sc3c(c1c2=O)CCCC3 (stereo not drawn)	i	0.14
4	COc1ccccc1-n1cnnc1SCC(=O)c1ccc[nH]1	i	0.1
5	Cn1cccc1/C=C1/SC(=S)N(CC(=O)O)C1=O	i	1.83
6	CCS(=O)(=O)N1N=C(c2ccc(NS(C)(=O)=O)cc2)CC1c1ccccc1 (stereo not drawn)	i	-0.25
7	COc1ccc(C2=NC(CO)(CO)CO2)cc1	i	0.62
8	COc1cccc(Nc2cc(C)c3ccccc3n2)c1	i	-1.85
9	COc1ccc(CNC(=O)CS(=O)(=O)Cc2nc(-c3cccc(OC)c3)oc2C)cc1	i	3.36
10	Cc1c(CNC2CCCC2)c(C(=O)O)c(C)n1Cc1ccccc1	i	2.8
11	Cc1ccnc(NC(=O)CN2C(=O)c3ccccc3C2=O)c1	i	0.68
12	CCOc1cc(/C=N/N=C(/N)c2nonc2N)cc(Br)c1OCc1ccc(Cl)cc1	i	-0.1
13	COCCNC(=O)C(c1cccs1)N(C(=O)Cn1nnc2ccccc21)c1cccc(C)c1 (stereo not drawn)	i	0.02
14	COc1ccc(Cc2nnc(Nc3c(C)cccc3C)o2)cc1OC	i	1
15	CCCCCC(=O)NNC(=O)Nc1ccccc1	i	0.05
16	CC(NC(=O)CSc1n[nH]c(=O)n1C1CC1)C12CC3CC(CC(C3)C1)C2 (stereo not drawn)	i	-1.41
17	COc1ccc2nc(NNC(=O)COc3ccccc3)sc2c1	i	0.34
18	O=C(Nc1ccc(F)cc1)c1cc(S(=O)(=O)N2CCOCC2)cs1	i	1.44
19	O=C(O)C(Cc1cc(Cl)ccc1Cl)Sc1nc2ccccc2[nH]1 (stereo not drawn)	i	0.29
20	CSc1nc2ncnc(N)c2[nH]1	i	1.13
21	C=CCn1c(COc2cc(C)ccc2C(C)C)nnc1SCC(=O)c1c(N)n(C)c(=O)n(C)c1=O	i	-0.8
22	CCCn1c(C(Cc2ccccc2)NC(=O)COC)nc2ccccc21 (stereo not drawn)	i	-2.04
23	O=C(Nc1ccc2c(c1)OCCO2)C1CC(c2ccccc2Cl)=NO1 (stereo not drawn)	i	0.17
24	CCn1c(CNC(=O)c2cccs2)nnc1SCC(=O)Nc1cc(Cl)ccc1C	i	0.41
25	O=C(CCn1nc(-c2ccccc2)c2ccccc2c1=O)Nc1cccnc1	i	0.01
26	Cc1ccccc1NC(=O)Cc1nc(COC(=O)CCOc2ccccc2)cs1	i	-0.12
27	CCCOc1ccc(NC(=O)c2cc3cc(C)ccc3[nH]2)cc1	i	0.41
28	O=C(CCCOc1ccccc1)Nc1nncs1	i	-1.3
29	CS(=O)(=O)N(CC(=O)Nc1ccccc1C(=O)NCc1ccccc1)c1ccc2c(c1)OCCO2	i	2.82
30	COc1ccc(-c2[nH]ncc2/C=N\NS(=O)(=O)c2ccc(Cl)cc2)cc1	i	-1.38
31	CC(C)(Cc1ccccc1)NC(=O)C(=O)c1cn(CC(=O)N2CCOCC2)c2ccccc12	i	3.19
32	Cc1c(N(C)C(=O)c2ccccc2F)c(=O)n(-c2ccccc2)n1C	i	2.62
33	COc1cc(C=C2C(=O)OC(C)(C)OC2=O)ccc1OCC(=O)Nc1ccccc1	i	-2.66
34	O=C(Nc1ccc(Cl)cc1)c1ccc(Br)cc1F	i	0.66
35	CN(C)CCOC(c1ccc(Cl)cc1)c1ccccn1 (stereo not drawn)	i	-1.32
36	CS(=O)(=O)N(CC(=O)NCC1CCCO1)Cc1ccc(Cl)cc1 (stereo not drawn)	i	1.81
37	O=C1/C(=C\c2cc([N+](=O)[O-])ccc2O)SC(=S)N1Cc1ccc(Cl)cc1	i	15.7
38	O=C(COC(=O)c1cc(S(=O)(=O)NCc2ccccc2)ccc1O)c1cc2ccccc2o1	i	0.06
39	Cn1c(=O)cc(SCC(=O)NCCC2=CCCCC2)c2cc(Cl)ccc21	i	-0.13
40	Cc1cc(Cl)c(S(=O)(=O)NCc2cccnc2)cc1OCC(N)=O	i	-0.48
41	COc1ccc(CN(C(=O)CN2C(=O)C(C)Oc3ccccc32)C2CCCC2)c(OC)c1 (stereo not drawn)	i	0.03
42	O=C(CSc1nc2cc(Cl)ccc2s1)NC1CCCc2ccccc21 (stereo not drawn)	i	-0.41
43	COC(=O)Nc1nnc(/C=C/c2ccccc2)s1	i	0.06
44	O=C(COc1ccccc1)N1CCc2ccccc2C1	i	2
45	O=C(O)CCn1c(=O)[nH]c2ccccc2c1=O	i	0.39
46	CCN(CC)S(=O)(=O)c1ccc(/C=C/C(=O)Nc2ccc(F)cc2F)cc1	i	-0.53
47	CC(C(=O)N1CCN=C1c1ccccc1)N1C(=O)c2ccccc2C1=O (stereo not drawn)	i	-0.32
48	O=C(CNS(=O)(=O)c1ccccc1)NCC(=O)OCc1ccc(Cl)cc1	i	2.61
49	CCc1cc(Cn2nc(-c3ccccc3)cc2C(=O)NCc2cccc(C(F)(F)F)c2)on1	i	-0.98
50	COC(=O)[C@@H]1C[C@H]2CC[C@H](O)C[C@H]2N1Cc1ccc(-c2ccccc2)cc1	i	-1.69
51	O=C(CSc1nc2ccccc2c(=O)n1-c1ccc(Cl)cc1)c1ccco1	i	0.25
52	CCOC(=O)c1nnc(-c2ccc(C)cc2)nc1Oc1ccccc1Cl	i	0.69
53	Cc1ccc(C(C(=O)NC2CCCC2)N(Cc2ccc3c(c2)OCO3)C(=O)Cc2cccs2)cc1 (stereo not drawn)	i	-1.22
54	CCc1ccccc1NC(=O)c1cnc2scc(C)n2c1=O	i	-1.15
55	COc1ccc(CCC(C)N2CCC(Oc3ccc(C(=O)N4CCCC4)cc3)CC2)cc1 (stereo not drawn)	i	0.14
56	O=C(O)Cn1c(=O)c2c(c3ccccc31)CCC2	i	-0.38
57	O=C(/C=C/c1ccccc1F)c1cccc([N+](=O)[O-])c1	i	1.67
58	Cc1cc(C)nc(N2CCC(C(=O)NCCc3ccc(F)cc3)CC2)n1	i	1.69
59	CCC1CCCCN1C(=O)CSc1nnc(-c2ccc(Cl)s2)o1 (stereo not drawn)	i	-1.17
60	CS(=O)(=O)N1CCC(C(=O)N2CCN(c3ccccc3)CC2)CC1	i	2.33

Additional results:
no.	SMILES	KCNQ2 inh	KCNQ2 inh baseline
61	CC1CCN(CC(O)COc2ccc(F)cc2)CC1 (stereo not drawn)	i	-0.94
62	O=C(NCc1ccccn1)C1CCN(S(=O)(=O)c2ccccc2)CC1	i	-1.31
63	O=C(CC1SC(=Nc2ccc(OC(F)F)cc2)N(CCN2CCOCC2)C1=O)Nc1ccc(F)cc1F (stereo not drawn)	i	0.24
64	COc1ccc(C(CNC(=O)c2ccc3c(c2)C(=O)N(CCC(C)C)C3=O)N2CCOCC2)cc1 (stereo not drawn)	-5.75*	-0.08*
65	O=C(Nc1nc(-c2ccccc2)nc2ccccc12)c1ccc(F)cc1	i	-0.81
66	CCOC(=O)c1c(NC(=O)C(=O)N/N=C/c2ccccc2O)sc2c1CCCCC2	i	0.24
67	C=CCn1c(SCC)nc(O)cc1=O	i	0.02
68	CCCn1c2ccccc2c2cnn(CC(=O)NCCN(C)C)c(=O)c21	i	1.04
69	CCN(CC)Cc1c(C(=O)N/N=C/c2cccc(OCc3ccc(F)cc3)c2)nnn1-c1nonc1N	i	1.57
70	COc1cc(CC(NC(C)=O)C(=O)NC2CCN(S(=O)(=O)c3ccc(NC(C)=O)cc3)CC2)cc(OC)c1 (stereo not drawn)	i	1.45
71	CCC1(c2ccccc2)NC(=O)N(CC(=O)Nc2cc(Cl)ccc2N2CCOCC2)C1=O (stereo not drawn)	i	-0.78
72	O=C(NC1CCCCC1)c1sc(N2CCOCC2)nc1-c1ccccc1	i	2.57
73	COc1ccccc1NC(=O)CSc1nc2ccccc2cc1Cc1ccccc1	i	-2.16
74	COc1cc(C=O)cc(Cl)c1OC(=O)N1CCOCC1	i	0.32
75	Nc1nnc(SCC(=O)Nc2ccc(N3CCOCC3)c(Cl)c2)s1	i	0.33
76	Oc1ccc(NC(=S)N=Nc2c(O)[nH]c3ccc(Br)cc23)cc1	i	1.14
77	CCOc1nc(Nc2ccc(OC)c(Cl)c2)nc(N2CCN(c3ccc(OC)cc3)CC2)n1	i	0.29
78	Cc1ccc(-n2c(C3CC3c3ccc(Cl)cc3)n[nH]c2=S)cc1 (stereo not drawn)	i	-0.57
79	COc1ccc(N(CC(=O)Nc2cc(OC)ccc2OC)S(C)(=O)=O)cc1	i	1.11
80	CC(C)CCNC(=O)C1CC(c2ccccc2[N+](=O)[O-])=NO1 (stereo not drawn)	i	0.31
81	CC1=CC(=O)C=C(C)C1=NOc1ccccc1[N+](=O)[O-]	i	0.58
82	COc1cc(OC)cc(C(=O)NCc2nc(-c3ccccc3)no2)c1	i	0.64
83	COc1ccc(-c2nnc(SCC(=O)Nc3cc(C)on3)o2)cc1	i	-0.34
84	COc1ccccc1CNS(=O)(=O)c1c(C(=O)N2CCCC2)c(C)n(C)c1C	i	0.73
85	O=C(COC(=O)c1ccc(Cl)c(S(=O)(=O)N2CCCCC2)c1)NCC1CCCO1 (stereo not drawn)	i	0.15
86	N=C(N)SCC1=CCS(=O)(=O)C1	i	-1.16
87	COc1ccc(C2/C=C\CN(C(=O)C3CC3)CC(=O)N2Cc2ccc(F)cc2)cc1 (stereo not drawn)	i	1.57
88	CC(=O)Nc1ccc(S(=O)(=O)Oc2ccc3c(c2)C(C)=CC(C)(C)N3)cc1	i	-0.34
89	CC(=O)Nc1ccc(NC(=O)C2CCCN2S(=O)(=O)c2cccc3nsnc23)cc1 (stereo not drawn)	i	1.67
90	N/C(=N\O)c1ccc(NC(=O)c2ccc(Br)o2)cc1	i	2.21

Molecules above that have a nitro group on carbon (4):
no.	SMILES	KCNQ2 inh	KCNQ2 inh baseline
37	O=C1/C(=C\c2cc([N+](=O)[O-])ccc2O)SC(=S)N1Cc1ccc(Cl)cc1	i	15.7
57	O=C(/C=C/c1ccccc1F)c1cccc([N+](=O)[O-])c1	i	1.67
80	CC(C)CCNC(=O)C1CC(c2ccccc2[N+](=O)[O-])=NO1 (stereo not drawn)	i	0.31
81	CC1=CC(=O)C=C(C)C1=NOc1ccccc1[N+](=O)[O-]	i	0.58

Remaining list, next part:
no.	SMILES	KCNQ2 inh	KCNQ2 inh baseline
91	CN1CCN(C(=O)c2ccccc2NC(=O)c2ccccc2)CC1	i	-0.34
92	O=C(O)CCCn1cc(NC(=O)COc2ccc([N+](=O)[O-])cc2)cn1	i	-0.86
93	COc1cccc(NC(=O)CSc2nncn2-c2ccccn2)c1	i	0.8
94	O=C(O)c1ccc2c(c1)-c1nc3ccccc3n1C2=O	i	-0.3
95	CCC(C)NC(=S)Nc1ccc2nc(N3CCN(CC)CC3)cc(C)c2c1 (stereo not drawn)	i	-1.32
96	COc1ccc(C(CNC(=O)C(=O)Nc2ccc3c(c2)OCO3)N2CCN(C)CC2)cc1 (stereo not drawn)	i	2.51
97	O=C(N/N=C/c1ccc([N+](=O)[O-])o1)c1cc(-c2cccc(Br)c2)nc2ccccc12	i	1.54
98	O=C(CN1CCC(C(=O)c2cccc(F)c2)CC1)NCc1cccs1	i	4.23
99	Cc1ccc(C)c(-n2c(CNC(=O)c3ccco3)nnc2SCC(=O)N2CCc3ccccc32)c1	i	0.64
100	Cn1cc(CN2CCC(Oc3ccc(C(=O)N4CCCCC4)cc3)CC2)cn1	i	0.06
101	CCn1c(=O)c2c(nc3n2CC(C)CN3CCc2ccccc2)n(C)c1=O (stereo not drawn)	i	1.45
102	O=C(O)Cc1ccc(NC(=O)c2ccc(Cl)c(Cl)c2)cc1	i	-1.42
103	CC(/C=N/N1CCN(c2ccccn2)CC1)=C\c1ccccc1	i	0.37
104	COc1ccc(C)cc1-n1c(SCC(=O)Nc2cc(C)on2)nc2sc(C)c(C)c2c1=O	i	1.88
105	COCc1ccc(CN2CCc3c([nH]c4ccccc34)C2C(C)(C)C)o1 (stereo not drawn)	i	-0.8
106	O=C(NC1CCCC1)c1cc(-c2cccc(Cl)c2)on1	i	-0.71
107	CN(C)C(CNC(=O)c1c(F)cccc1Cl)c1ccco1 (stereo not drawn)	i	-0.36
108	O=C(CN1CCC(C(O)(c2ccccc2)c2ccccc2)CC1)Nc1cc(Cl)ccc1Cl	i	-1.13
109	O=C(N/N=C/c1ccc([N+](=O)[O-])cc1)c1ccc(COc2ccccc2-c2ccccc2)cc1	i	0.64
110	CCOP(=O)(OCC)C(Nc1ccccc1)c1ccccc1C(F)(F)F (stereo not drawn)	i	0.97
111	CCc1cccc2c(SCC(=O)NCC3CCCO3)nc(-c3ccc(F)cc3)nc12 (stereo not drawn)	i	0.11

Quoted from above: entries 105 to 111
no.	SMILES	KCNQ2 inh	KCNQ2 inh baseline
105	COCc1ccc(CN2CCc3c([nH]c4ccccc34)C2C(C)(C)C)o1 (stereo not drawn)	i	-0.8
106	O=C(NC1CCCC1)c1cc(-c2cccc(Cl)c2)on1	i	-0.71
107	CN(C)C(CNC(=O)c1c(F)cccc1Cl)c1ccco1 (stereo not drawn)	i	-0.36
108	O=C(CN1CCC(C(O)(c2ccccc2)c2ccccc2)CC1)Nc1cc(Cl)ccc1Cl	i	-1.13
109	O=C(N/N=C/c1ccc([N+](=O)[O-])cc1)c1ccc(COc2ccccc2-c2ccccc2)cc1	i	0.64
110	CCOP(=O)(OCC)C(Nc1ccccc1)c1ccccc1C(F)(F)F (stereo not drawn)	i	0.97
111	CCc1cccc2c(SCC(=O)NCC3CCCO3)nc(-c3ccc(F)cc3)nc12 (stereo not drawn)	i	0.11

Compound activity as filed in PubChem BioAssay.
